Screening data deposited in PubChem BioAssay by several laboratories.
HSV replic up – enhancers of HSV replication in host cells, fold increase, host cell viability | maximum fold increase | hit rate 0.005% among 220,000 | HSV replication augmentation in cells | AID 1956, 2009;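 active = peak rise of 1.5-fold or more in the series; tested in PC3 cells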;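 note: first round at 10 µM; read as green reporter fluorescence; hits show the peak of a series up to 25 µM; 1 = signal of infected wells without compound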
Insulin prom inh – inhibitors of insulin promoter-driven GFP, primary screen, imaging, TRM-6 cells (human fetal islet line), eGFP reporter, cell count | AID 1273, 2008 | reporter expression induced with tamoxifen | inhibition, % at 2 µM | hit rate 0.9% among 130,000;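 active = inhibition above the mean plus 3 SD, with well images judged a real hit on visual review, cut at about 60% in these data, passing the limit was not always enough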
GALR2 ag – GALR2 receptor agonists, primary screen, cell-based | GALR2-expressing cells, agonist activation read-out | activation, %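 (tested at 5 µM)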 | hit rate 0.48% among 140,000;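 active = above mean plus 3 SD of all compounds, about 5% in these data, not always enough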;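 note: 0% = vehicle buffer wells and 100% = reference agonist at full effect; tested in CHO reporter cells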
RGS16-Gao HTS – modulators of RGS16 binding to Galphao, primary screen, biochemical, human proteins, multiplexed bead flow cytometry. AID 1441, 2008. bead-based flow cytometry RGS16-Galphao binding, fluorescence; actives lie on both sides. binding response (% of control), % at 10 µM. hit rate 0.38% among 220,000. Regulator of G-protein signaling 16 (Homo sapiens) + Guanine nucleotide-binding protein …;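 active = below 25% or above 175%, edge rows of some plates excepted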;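 note: Galphao activated by GDP with aluminum fluoride before binding; 100% = wells without compound and 0% = beads without RGS; some results beyond the cut were filed as inactive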
PKD1 kinase inh – inhibitors of human PKD1 kinase, biochemical, fluorescence polarization. PKD1 kinase fluorescence polarization assay. Serine/threonine-protein kinase D1 (Homo sapiens), Q15139. inhibition, %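 (about 10 µM by stock and volumes)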. hit rate 0.056% among 200,000;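 active = inhibition of 50% or more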;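 note: controls were vehicle for no effect and a reference inhibitor for full effect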
Target sequence (Q15139 whole entry, looked up): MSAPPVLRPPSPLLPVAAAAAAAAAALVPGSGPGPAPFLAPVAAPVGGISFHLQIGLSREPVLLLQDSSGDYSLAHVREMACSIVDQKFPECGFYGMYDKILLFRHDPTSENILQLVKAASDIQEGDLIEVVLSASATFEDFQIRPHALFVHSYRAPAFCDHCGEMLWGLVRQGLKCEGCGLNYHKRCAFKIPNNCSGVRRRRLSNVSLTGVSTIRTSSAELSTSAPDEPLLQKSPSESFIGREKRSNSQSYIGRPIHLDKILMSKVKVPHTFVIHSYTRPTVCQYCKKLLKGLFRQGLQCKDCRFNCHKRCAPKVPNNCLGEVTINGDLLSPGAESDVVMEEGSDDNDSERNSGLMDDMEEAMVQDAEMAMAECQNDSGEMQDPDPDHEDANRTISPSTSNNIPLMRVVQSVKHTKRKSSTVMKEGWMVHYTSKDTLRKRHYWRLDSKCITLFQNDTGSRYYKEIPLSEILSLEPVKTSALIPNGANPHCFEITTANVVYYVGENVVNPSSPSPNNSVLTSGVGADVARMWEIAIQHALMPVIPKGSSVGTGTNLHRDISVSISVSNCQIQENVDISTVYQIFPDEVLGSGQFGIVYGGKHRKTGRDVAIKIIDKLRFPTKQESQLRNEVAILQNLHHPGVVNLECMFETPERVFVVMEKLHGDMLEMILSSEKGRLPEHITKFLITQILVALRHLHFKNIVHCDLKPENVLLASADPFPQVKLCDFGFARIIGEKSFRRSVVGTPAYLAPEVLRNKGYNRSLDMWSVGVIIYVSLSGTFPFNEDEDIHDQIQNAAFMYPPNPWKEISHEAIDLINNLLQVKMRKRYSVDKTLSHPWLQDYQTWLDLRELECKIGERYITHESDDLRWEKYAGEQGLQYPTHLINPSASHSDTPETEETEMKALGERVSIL
Insulin prom inh cell count – recorded beside Insulin prom inh, whose call it bears; normalized cell count, %; measured here: cell count, toxicity; reference of the scale not given here;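 cells exposed to compound for 48 h; stained nuclei by imaging scaled within each plate; lower means fewer cells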
HSV replic up primary fold – also measured in HSV replic up; calls as there; fold increase; compound at 10 µM; measured here: primary screen fold increase 10 uM; tested in PC3 cells;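 GFP signal in the first replicate; 1 = infected wells without compound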
The depositor's hits bear a star; i = inactive; x = no result given.

SMILES	HSV replic up	HSV replic up primary fold	Insulin prom inh	Insulin prom inh cell count	GALR2 ag	RGS16-Gao HTS	PKD1 kinase inh
Cc1cc(O)c(NC(=O)c2ccc(C)c([N+](=O)[O-])c2)cc1C	i	0.93	x	x	x	102	-1
O=C(CN1C(=O)C2C3CCC(C3)C2C1=O)NCc1ccco1 (stereo not given)	i	1	x	x	x	98	0
CN1C(=O)c2ccc(NC(=O)c3cccc(N4C(=O)CCC4=O)c3)cc2C1=O	i	1.1	-12	79	x	101	-2
c1ccc(-c2oc3ncnc(NCCN4CCOCC4)c3c2-c2ccccc2)cc1	x	x	-346	95	-1.1	97	4
O=[N+]([O-])c1cccc(-c2nnc(C3CC3)o2)c1	i	0.96	x	x	x	105	x
CC(CCc1ccccc1)NC(=O)CSc1nc(N)cc(N)n1 (stereo not given)	i	1	-32	131	-1.1	94	0
O=C(c1cccc(-c2nnc(-c3ccccc3)o2)c1)N1CCCCCC1	i	0.79	13	136	-1.4	93	1
N#Cc1cccc(NC(=O)CCC2CCCC2)c1	i	0.9	-233	73	-1.9	97	-5
COc1cc(NC(=O)N2CCOCC2)cc(OC)c1	i	0.94	23	90	-1.3	111	-5
COc1ccccc1-n1nnnc1SCC(=O)NC1CCCC1	i	1	30	98	-1.5	104	-6
Cc1ccccc1CN1C2=NCCCN2c2ccccc21	i	0.83	22	58	-4.8	107	-4
O=C(Cc1nnc(NC(=O)Nc2ccccc2)s1)Nc1ccccc1	i	1	x	x	x	101	x
C=CCNc1nc(NCc2ccccc2)c(C#N)c2c1CN(C)CC2	i	0.87	x	x	0.2	151	-4
Cc1nc2nc(-c3ccco3)nn2c(C)c1Cl	i	0.9	-12	110	-0.3	99	8
CC(C)=C(C#N)c1nc2ccccc2s1	i	1.1	-95	60	1.2	99	3
O=C(COC(=O)C1CCC(=O)N1)Nc1ccc(Oc2ccccc2)cc1 (stereo not given)	i	0.96	-50	120	x	104	-10
CC(C)c1ccccc1NC(=O)COC(=O)c1ccc(Cl)c(S(=O)(=O)N2CCCCCC2)c1	i	0.97	-27	86	-1.3	103	-9
CC(C)(C)C(=O)O/N=C(\N)c1ccc(-c2csnn2)cc1	i	1	x	x	x	107	x
Nc1ccc(Br)cc1C(NCC(=O)O)c1ccccc1 (stereo not given)	i	0.99	0	104	x	95	3
O=C(NC1CCS(=O)(=O)C1)c1cccc(S(=O)(=O)N2CCOCC2)c1 (stereo not given)	i	0.7	28	59	-0.3	104	1
CCOc1ccc(C(=O)C(c2ccccc2)N2CCOCC2)cc1 (stereo not given)	i	0.95	7	84	-1.3	105	-8
COc1ccc2nc(SC)c(C#N)cc2c1	i	0.95	x	x	x	102	-6
Nc1ccc(Oc2ccc3nc(-c4ccccc4)c(-c4ccc([N+](=O)[O-])cc4)nc3c2)cc1	i	1.1	x	x	-0.6	107	1
CN(C)S(=O)(=O)c1ccc(S(=O)(=O)NC2CCOC(C)(C)C2)cc1 (stereo not given)	i	0.77	-33	142	0.0	76	8
COC(=O)C(CC(C)C)NC(=O)CNC(=O)c1ccccc1C (stereo not given)	i	0.95	8	148	-2.0	94	-1
CCc1ccccc1NC(=O)CN(C)C(=O)CSc1nc2cc(Cl)ccc2s1	i	0.95	-77	102	-0.6	103	-11
O=C1ON=C(c2ccccc2)/C1=C/c1cccnc1	i	0.95	x	x	x	95	-1
COc1ccc2c(c1)c(C(=O)N/N=C/c1cccc(O)c1)c(C)n2C	i	0.96	-20	155	-0.5	109	-1
O=C(c1cc(-c2cccs2)nc2ccccc12)N1CCN(c2ccccc2O)CC1	i	0.81	0	98	x	111	-10
COc1ccc(Cl)cc1NC(=O)CN1CCC(n2nnc3ccccc32)CC1	i	0.83	35	83	-1.2	106	-3
Cc1nn(C(C)(C)C)c(C)c1/C=N/OC(=O)Nc1ccc(Cl)cc1	i	0.87	x	x	x	102	x
COc1cccc(N2CCN(C(c3ccccn3)c3nnnn3C(C)(C)C)CC2)c1 (stereo not given)	i	0.83	38	105	-1.7	102	-5
CCc1nc(SCc2ccccn2)[nH]c(=O)c1C	i	0.86	x	x	x	104	-7
COc1cnn(-c2ccccc2)c(=O)c1SCc1ccc(Cl)cc1Cl	i	1.1	x	x	-0.4	95	15
CCN(CC)C(=O)c1cccc(-c2ccc(OC)cc2)c1	i	0.94	-130	107	-0.7	98	11
O=C(N/C(=C/c1ccco1)C(=O)N1CCCCCC1)c1cccs1	i	0.93	39	105	-1.0	84	-5
CCN(c1ccccc1)S(=O)(=O)c1ccc(F)cc1C	i	0.85	-32	39	0.5	84	-4
COc1cccc(-c2cn3nc(C)c(C)nc3n2)c1	i	1.1	x	x	0.2	104	0
COc1ccc(NC(=O)CSc2c(C)nn(-c3nnc(C)c(=O)[nH]3)c2C)cc1	i	1.1	-40	57	-0.2	101	9
CCOC(=O)CC1C(=O)NCCN1C(=O)c1cc2c(=O)n3cccc(C)c3nc2s1 (stereo not given)	x	x	x	x	-1.3	104	8
C=CCNC(=O)/C=C/c1ccc(C(C)C)cc1	i	0.94	-15	123	-0.7	99	-1
CC1(C)CC(=O)/C(=C(\O)c2ccccc2)C(=NCCc2ccccc2)C1	i	1	-72	82	0.3	123	-8
Cc1nn(Cc2ccc(Cl)cc2Cl)c(Cl)c1/C=N/NC(=O)CNc1cccc(C(F)(F)F)c1	i	0.98	x	x	1.0	108	-2
Nc1nnc(CCOc2ccccc2Cl)s1	i	1	-54	55	-1.5	122	0
Cc1cc(C(C)(C)C)ccc1OCCOCCN1CCCC1	i	0.92	6	63	-1.8	150	2

A section from the list above:
SMILES	HSV replic up	HSV replic up primary fold	Insulin prom inh	Insulin prom inh cell count	GALR2 ag	RGS16-Gao HTS	PKD1 kinase inh
Cc1cc(O)c(NC(=O)c2ccc(C)c([N+](=O)[O-])c2)cc1C	i	0.93	x	x	x	102	-1
O=C(CN1C(=O)C2C3CCC(C3)C2C1=O)NCc1ccco1 (stereo not given)	i	1	x	x	x	98	0
CN1C(=O)c2ccc(NC(=O)c3cccc(N4C(=O)CCC4=O)c3)cc2C1=O	i	1.1	-12	79	x	101	-2
c1ccc(-c2oc3ncnc(NCCN4CCOCC4)c3c2-c2ccccc2)cc1	x	x	-346	95	-1.1	97	4
O=[N+]([O-])c1cccc(-c2nnc(C3CC3)o2)c1	i	0.96	x	x	x	105	x
CC(CCc1ccccc1)NC(=O)CSc1nc(N)cc(N)n1 (stereo not given)	i	1	-32	131	-1.1	94	0

Additional compounds:
SMILES	HSV replic up	HSV replic up primary fold	Insulin prom inh	Insulin prom inh cell count	GALR2 ag	RGS16-Gao HTS	PKD1 kinase inh
COc1ccc(NC(=O)/C=C/c2ccccc2[N+](=O)[O-])c(OC)c1	i	1.1	x	x	1.1	102	-1
COc1cc(C)nc(N2CCCC(C(=O)Nc3cc(Cl)ccc3OC)C2)n1 (stereo not given)	i	0.81	-89	34	-1.6	112	-2
COc1ccc(NC(=O)CN2CC(c3ccccc3)CC2=O)cc1OC (stereo not given)	i	0.75	x	x	0.0	100	-1
C=CCn1c(Sc2nncn2C)nc2c1c(=O)[nH]c(=O)n2C	i	0.93	55	83	-1.1	64	-5
Cn1c(NC(=O)c2ccccc2)c(-c2ccccn2)c(=O)c2ccccc21	i	0.98	22	49	-1.8	106	-3
Cc1ccc(S(=O)(=O)N2CCCCC2)cc1NC(=O)COC(=O)Cc1cccc(C(F)(F)F)c1	x	x	23	97	-2.5	99	-8
COc1ccc(NC(=S)NNC(=O)C2CC2c2ccc(C)cc2)cc1 (stereo not given)	i	0.85	-21	107	-1.2	122	3
Cc1ccccc1C1CC(c2ccccc2)Nc2ncnn21 (stereo not given)	i	0.8	x	x	-3.0	96	-9
CS(=O)(=O)c1ccc2sc(NC(=O)c3cc4ccccc4o3)nc2c1	i	0.91	x	x	x	102	x
CC(C)C(CC(=O)N1CCCCC1)C1CCOC(C)(C)C1 (stereo not given)	i	0.91	-62	112	-1.3	107	2
CC(C)CNC(=O)c1ccc(NC(=O)c2cccs2)cc1	i	0.89	5	107	-0.8	103	-10
O=C(O)CCCC(=O)N1CCc2cc(S(=O)(=O)NCc3ccc(F)cc3)ccc21	x	x	0	114	x	109	-7
O=C(Nc1ccc(Br)cc1)C1OCCc2ccccc21 (stereo not given)	i	0.81	x	x	x	86	x
COc1cc(/C=N/Nc2nc3ccccc3s2)ccc1OC(=O)c1ccccc1F	i	0.83	38	110	1.4	104	-2
COc1cccc(C(=O)COC(=O)c2n[nH]c(=O)c3ccccc23)c1	i	1	23	76	x	100	-5
CCCc1cc(C(=O)Nc2sc(C)c(C)c2C(=O)OCC)no1	i	1	x	x	-1.7	101	12
O=C(NCCN1CCOCC1)c1cc(S(=O)(=O)NCCCN2CCCC2=O)ccc1Cl	i	0.9	0	143	-0.2	100	-4
COc1ccc(COCC(O)CN2CCc3ccccc3C2)cc1OC (stereo not given)	i	0.99	58	84	x	107	7
Cc1nn(-c2ccccc2)c(N)c1N=Nc1cccc(S(=O)(=O)N2CCOCC2)c1	i	0.79	x	x	x	111	x
CC(=O)Nc1ccc(/C(C)=N/NS(=O)(=O)c2ccccc2)cc1	i	1.1	-10	126	-1.3	100	4
Cc1ccc(/C(N)=N/OC(=O)COc2ccccc2Cl)cc1	i	0.96	-8	125	-4.0	114	1
CN(C(=O)CSC1=Nc2ccccc2C2=NC(c3ccccc3)C(=O)N12)C1CCCCC1 (stereo not given)	i	0.81	50	62	0.5	17	3
Cc1onc(-c2ccccc2)c1C(=O)NC(=S)NNC(=O)c1ccncc1	i	0.82	3	99	-0.6	99	-5
CN(C(=O)c1ccccc1OC1CCN(S(C)(=O)=O)CC1)C1CCOC1 (stereo not given)	i	0.93	4	165	x	108	1
O=C1CC(N2CCCc3ccccc32)C(=O)N1c1ccccc1Cl (stereo not given)	i	1	53	96	-1.5	107	-15
CC(Sc1nc(N)c2c3c(sc2n1)CSC(C)(C)C3)C(=O)Nc1ccccc1 (stereo not given)	i	0.97	x	x	-0.1	96	-10
O=c1cc(N2CCCCC2)c(-c2ccccc2)n[nH]1	i	0.97	x	x	x	100	-3
COc1cccc(/C(C)=N/NS(=O)(=O)c2ccc(Cl)cc2)c1	i	0.95	-17	101	x	106	-2
CN1CCN(C(=O)CSc2ccc(Cl)cc2)CC1	i	0.91	x	x	x	97	-5
CC1CCCCN1c1nnc(NC(=O)Cn2c(=O)oc3ccccc32)s1 (stereo not given)	i	1	x	x	-4.5	96	1

2 of these compounds, set out differently.
| SMILES | HSV replic up | HSV replic up primary fold | Insulin prom inh | Insulin prom inh cell count | GALR2 ag | RGS16-Gao HTS | PKD1 kinase inh |
| --- | --- | --- | --- | --- | --- | --- | --- |
| O=c1cc(N2CCCCC2)c(-c2ccccc2)n[nH]1 | i | 0.97 | x | x | x | 100 | -3 |
| COc1cccc(/C(C)=N/NS(=O)(=O)c2ccc(Cl)cc2)c1 | i | 0.95 | -17 | 101 | x | 106 | -2 |

Other results
SMILES	HSV replic up	HSV replic up primary fold	Insulin prom inh	Insulin prom inh cell count	GALR2 ag	RGS16-Gao HTS	PKD1 kinase inh
Cc1cc(Cl)c(S(=O)(=O)Nc2ccc3c(c2)OCCO3)cc1OCC(=O)NC1CCCCC1	i	0.72	20	76	-1.8	103	11
N#Cc1ccc(-c2nc3ccccc3nc2-c2ccccc2)cc1C#N	i	0.88	x	x	-0.2	100	-9
O=C(COC(=O)c1ccccc1C(=O)c1ccccc1)NCCc1ccc(Cl)cc1Cl	i	1.2	22	70	-0.4	65	1
C=CCOc1cccc(CNCCCN2CCOCC2)c1	i	0.73	14	59	x	102	-3
CCOc1ccccc1-c1nc(-c2cc3ccccc3nc2OC)no1	i	0.91	x	x	-1.8	100	-6
COc1ccc(C(=O)Nc2ccc(C3(C#N)CCCC3)cc2)cc1	i	0.91	x	x	x	103	5
O=C(CCN1C(=O)c2ccccc2S1(=O)=O)Nc1ccccc1O	i	1.1	33	75	-1.2	100	-9
COc1ccc2nc(NC(=O)CN3CCOCC3)sc2c1	i	1	-38	169	0.0	98	3
COc1ccc(/C(O)=C2/C(=O)C(=O)N(CCN3CCOCC3)C2c2ccccn2)cc1 (stereo not given)	i	1	25	96	-0.7	98	6
COc1ccccc1C1NC=C([N+](=O)[O-])C=C1[N+](=O)[O-] (stereo not given)	i	1.1	-33	109	0.1	95	-5
Cc1cc(NC(=O)c2cccc(F)c2)no1	x	x	-9	168	-1.9	101	-7
CN(C)CCNC(=S)Nc1ccc(Cl)cc1Cl	i	0.95	-33	31	0.2	103	0
